miR-21 reporter = raises the signal of a miR-21 reporter; HeLa miR-21 FLuc reporter, luciferase, 48 h; Potency, µM (doses to about 38.3 µM), for the others: at the highest dose reporter change, positive = more light; 340,000 tested, under 10 active; active = well fitted rising curve with a large enough effect; inconclusive = small, poorly fitted or top-dose-only effect; inactive = no such curve, though single readings can be large or run the other way;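 note: % of control where 0% means no effect; miR-21 action dims this reporter so a rising signal means less miR-21 action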
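Luminescence from a firefly luciferase reporter carrying a miR-21 binding site downstream, stably expressed under a CMV promoter in HeLa cells that make miR-21 endogenously, reports miRNA modulation after 48 h compound exposure up to approximately 40uM final.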
* hit, by the source's call; ? = inconclusive. A portion of the library; rates above refer to the full screens.

SMILES	miR-21 reporter
CCCCOc1ccc(CNC(=O)c2cnc3sc(N4CCCC4)nn3c2=O)cc1	0%
Cc1cccc(NC(=O)CCNS(=O)(=O)c2ccc3c(c2)CCN3C(=O)C2CC2)c1	0%
CCn1cc2nc(SCc3ccccc3F)n(Cc3ccc(C)cc3)c(=O)c2n1	1%
COc1cc(Cl)c(C)cc1NC(=O)CCc1c(C)nc2cc(-c3cccc(F)c3)nn2c1C	-1%
CN(C)c1ccc(CN(Cc2ccco2)C(=O)c2ccc(C(C)(C)C)cc2)cc1	8%
CCOc1cccc2cc(-c3cn4c(n3)sc3ccccc34)c(=O)oc12	-1%
CCOc1ccc(NC(=O)Nc2ccc3snnc3c2)cc1	-3%
CCOC(=O)c1cccc(NC(=O)c2ccc3snnc3c2)c1	-14%
O=C(Cn1c(=O)nc(-c2ccccc2)c2ccccc21)NCCc1ccc(Cl)cc1	13%
Cc1ccc(-n2ncc3c(N4CCN(C)CC4)ncnc32)cc1Cl	-60%
O=C(Nc1sc2c(c1C(=O)NCC1CCCO1)CCC2)c1cc(=O)c2cc(Cl)ccc2o1 (stereo not drawn)	-1%
Cc1ccc(-n2nc(CO)c(C(=O)NCC(c3ccccc3)c3ccccc3)n2)cc1	4%
Cc1ccc(C)c(S(=O)(=O)c2nnn3c2nc(NC2CCCCC2)c2sccc23)c1	23%
CSc1ccc(C2c3[nH]c4ccccc4c3CCN2C(=O)CCC2CCCC2)cc1 (stereo not drawn)	-8%
CCOC(=O)c1ccc(NC(=O)Cn2cc(C(=O)C3CC3)c3ccccc32)cc1	-1%
COc1ccc(NC(=O)CSc2oc(-c3cccs3)nc2S(=O)(=O)c2ccc(C)cc2)c(OC)c1	5%
COC(=O)C1=C(C)N(Cc2ccccc2)C(=NCC2CC2)N[C@H]1c1ccc(Br)cc1	?
Cc1ccc(N(CC(C)C)S(=O)(=O)c2nnc(NC(=O)c3cccs3)s2)cc1	-29%
Cc1cc(C)c(NC(=O)Cn2c(=O)n(CCc3ccccc3)c(=O)c3ccccc32)c(C)c1	-2%
Cc1ccc(-c2c3c(=O)n(C)c(=O)n(C)c3cn2-c2cc(C)ccc2O)cc1	-3%
Cc1cc(C)c2oc(-c3cccc(NC(=O)c4ccco4)c3)nc2c1	-3%
COC(=O)c1cc2oc3ccccc3c2n1CC(=O)Nc1cccc(SC)c1	-34%
COC(=O)c1ccc(NC(=O)CSc2nnc3c4ccccc4n(C(C)C)c3n2)cc1	-2%
CC(=O)c1cccc(NC(=O)Cn2c(SCC(=O)Nc3ccc(F)cc3)nc3ccccc32)c1	0%
Cc1ccc(C2Nc3cc(C)c(C)cc3-n3c(-c4ccccc4)c4c(=O)n(C)c(=O)n(C)c4c32)o1 (stereo not drawn)	-5%
More records:
SMILES	miR-21 reporter
O=S(=O)(NCCc1csc2nc(-c3ccc(F)cc3)nn12)c1ccc(Oc2ccccc2)cc1	10%
CCc1ccccc1Nc1sc(C(=O)c2cccc(OC)c2)c(N)c1S(=O)(=O)c1ccccc1	5%
Cc1ccc(NC(=O)C(Cc2ccccc2)NS(=O)(=O)c2ccc3c(c2)oc(=O)n3C)cc1F (stereo not drawn)	-21%
O=C(CN1C(=O)COc2ccc(S(=O)(=O)NC3CCCC3)cc21)Nc1ccc(Cl)cc1	-11%
CC(=O)c1cccc(NC(=O)C2CCN(S(=O)(=O)c3ccc4c(c3)oc(=O)n4C)CC2)c1	-3%
CC(=O)Nc1ccc(NC(=O)CSc2cn(CC(=O)N(C(C)C)C(C)C)c3ccccc23)cc1	0%
CC1CCn2c(nc3cc(C(=O)NCCc4ccc(Cl)cc4)ccc32)C1 (stereo not drawn)	-7%
CCOc1ccc(-n2c(=O)c3c(C)c(C)sc3n(Cc3ccccc3C)c2=O)cc1	-5%
CNC(=O)C(=O)NCC(c1ccc2c(c1)OCO2)N1CCOCC1 (stereo not drawn)	-7%
CCOc1ccc(CNC(=O)c2ccc3c(c2)sc2nc(-c4ccc(OC)cc4)cn23)cc1	16%
CC1CCC(NC(=O)c2ccc3c(c2)N(Cc2ccccc2)C(=O)c2ccccc2S3(=O)=O)CC1 (stereo not drawn)	-7%
CC1(C)C(=O)N(CC(=O)Nc2ccc(OC(F)(F)F)cc2)c2ccccc21	-2%
CCOC(=O)c1cc(S(=O)(=O)N2CCN(c3cccc(OC)c3)CC2)[nH]n1	-1%
CCn1ccc2c(OCC(=O)NCc3ccccc3)cccc2c1=O	-10%
COC(=O)c1ccc(NC(=O)c2cc(S(=O)(=O)N3CCC(C)CC3)cn2C)cc1	-10%
CCOC(=O)c1noc2ncn(CC(=O)O)c(=O)c12	0%
CCC1Oc2ccc(C)cc2N(CC(=O)N2CCN(c3ccccc3OC)CC2)C1=O (stereo not drawn)	-16%
COC(=O)CN1C(=O)C(C)(C)c2cc(S(=O)(=O)Nc3ccc(Br)cc3F)ccc21	-7%
COc1cc2ccccc2cc1C(=O)Nc1ccc2oc(-c3cc(Br)ccc3Cl)nc2c1	-4%
CCOC(=O)c1c(NC(=O)CSc2cn(CCNC(=O)c3cccc(C(F)(F)F)c3)c3ccccc23)sc2c1CCC2	0%
Cc1cc(Nc2cccc(C(F)(F)F)c2)nc2ccc(NC(=O)c3ccc(=O)[nH]c3)cc12	12%
COc1ccc(CCNC(=O)C2(c3cccs3)CCOCC2)cc1	-8%
Cc1ccc(Cn2cc(C(=O)c3ccc(F)cc3)c(=O)c3cc4c(cc32)OCO4)cc1	7%
CCCc1cc(=O)[nH]c2nnc(SCC)n12	-4%
CCc1ccc(NC(=O)Cn2c(=O)n(CCCC(=O)NCc3ccccc3Cl)c(=O)c3ccccc32)cc1	-5%

Given with each value named: entries from further up
> CNC(=O)C(=O)NCC(c1ccc2c(c1)OCO2)N1CCOCC1 (stereo not drawn)
  miR-21 reporter: -7%

> CCOc1ccc(CNC(=O)c2ccc3c(c2)sc2nc(-c4ccc(OC)cc4)cn23)cc1
  miR-21 reporter: 16%

Part of the list above, comma-delimited:
canonical_smiles,miR-21 reporter
CC1CCC(NC(=O)c2ccc3c(c2)N(Cc2ccccc2)C(=O)c2ccccc2S3(=O)=O)CC1 (stereo not drawn),-7%
CC1(C)C(=O)N(CC(=O)Nc2ccc(OC(F)(F)F)cc2)c2ccccc21,-2%
CCOC(=O)c1cc(S(=O)(=O)N2CCN(c3cccc(OC)c3)CC2)[nH]n1,-1%
CCn1ccc2c(OCC(=O)NCc3ccccc3)cccc2c1=O,-10%
COC(=O)c1ccc(NC(=O)c2cc(S(=O)(=O)N3CCC(C)CC3)cn2C)cc1,-10%
CCOC(=O)c1noc2ncn(CC(=O)O)c(=O)c12,0%
CCC1Oc2ccc(C)cc2N(CC(=O)N2CCN(c3ccccc3OC)CC2)C1=O (stereo not drawn),-16%
COC(=O)CN1C(=O)C(C)(C)c2cc(S(=O)(=O)Nc3ccc(Br)cc3F)ccc21,-7%
COc1cc2ccccc2cc1C(=O)Nc1ccc2oc(-c3cc(Br)ccc3Cl)nc2c1,-4%
CCOC(=O)c1c(NC(=O)CSc2cn(CCNC(=O)c3cccc(C(F)(F)F)c3)c3ccccc23)sc2c1CCC2,0%
Cc1cc(Nc2cccc(C(F)(F)F)c2)nc2ccc(NC(=O)c3ccc(=O)[nH]c3)cc12,12%
COc1ccc(CCNC(=O)C2(c3cccs3)CCOCC2)cc1,-8%
Cc1ccc(Cn2cc(C(=O)c3ccc(F)cc3)c(=O)c3cc4c(cc32)OCO4)cc1,7%
CCCc1cc(=O)[nH]c2nnc(SCC)n12,-4%

Other entries follow.
SMILES	miR-21 reporter
CC(=O)c1cccc(NC(=O)CN2C(=O)CN(C)C(=O)c3ccccc32)c1	5%
COC(=O)CN1C(=O)CSc2ccc(S(=O)(=O)Nc3ccc(C(C)=O)cc3)cc21	-5%
Cc1cc(C)cc(C(=O)NCC(c2ccc(N(C)C)cc2)N2CCCC2)c1 (stereo not drawn)	5%
Cc1c(-c2ccccc2)n(-c2ccc(Cl)cc2)c2nc3c(c(=O)n(C)c(=O)n3C)n12	-5%
Cc1cccc2sc(N3CCN(C(=O)c4ccco4)CC3)nc12	-47%
Cc1ccc(Cl)cc1N1CCN(S(=O)(=O)c2ccc3c(c2)CCN3C(=O)C2CCC2)CC1	-1%
CCOc1ccc(C2CC(=O)c3c([nH]c(C(=O)OCc4ccccc4)c3C)C2)cc1 (stereo not drawn)	-13%
CCOc1cc(-c2nc(-c3ccc(-c4ccc(OC)cc4)nc3OC)no2)cc(OCC)c1OCC	-2%
CC(=O)NCCNC(=O)c1ccc2c(=O)n(CCc3ccccc3)c(=O)[nH]c2c1	-14%
Cc1ccc(S(=O)(=O)N2CCc3cc(C(=O)Nc4c(F)cccc4F)ccc32)cc1	3%
COCCn1c(C)cc(O)c(C(c2ccccc2)N2CCN(CCO)CC2)c1=O (stereo not drawn)	-6%
Cc1cccc(C(=O)Nc2ccc(N3CC=C(c4ccccc4C)CC3)c(C(=O)O)c2)c1	-13%
CCCCCCc1c(C)c2c(cc(C)c3c(C)coc32)oc1=O	-1%
COc1ccc(-c2cc(C(F)(F)F)nc(SCC(=O)NC(C)c3ccccc3)n2)cc1 (stereo not drawn)	-4%
COc1ccc(N2CCN(C(=O)CSCc3ccc(C)cc3)CC2)cc1	8%
COc1ccc(NC(=O)CN2CCN(S(=O)(=O)c3ccc(Br)cc3)CC2)cc1	-2%
Cc1oc2c(c1C(=O)NCc1ccccc1F)C1=NCCN1C=N2	4%
CC1=C(C(=O)NCc2ccc(Cl)cc2)C2(CCCCCC2)OC1=O	-6%
O=C(NCCc1ccccc1)c1cc(-c2ccc(Cl)cc2)on1	-5%
CCCCN(C(=O)C1CCC(CNS(=O)(=O)c2cccc3nsnc23)CC1)c1ccccc1 (stereo not drawn)	25%
COC(=O)NCc1c(C)nn(-c2ccccc2)c1-n1cccc1	7%
O=C(NCCC1=CCCCC1)c1ccc2c(c1)N(Cc1ccccc1)C(=O)c1ccccc1S2=O (stereo not drawn)	9%
COc1ccc2cc3cc(C(=O)N4CCN(c5cccc(Cl)c5)CC4)sc3nc2c1	0%
CCC(CC)C(=O)Nc1ccc2nc(SCC(=O)N3c4ccccc4CC3C)sc2c1 (stereo not drawn)	22%
Fc1cccc(-n2ncc3c2ncn2nc(COc4ccc(Cl)cc4)nc32)c1	-4%
Going on with the list.
SMILES	miR-21 reporter
Cc1ccc2nc(-c3ccco3)c(Nc3ccc4c(c3)OCCO4)n2c1	-12%
CCOc1cc(C(=O)NCCc2csc3nc(-c4ccccc4F)nn23)cc(OCC)c1OCC	1%
COc1ccc(CNC(=O)c2cc(-c3ccc(Cl)cc3)n[nH]2)cc1	-18%
COc1ccc(Nc2cc(C(=O)NCCCN(C)Cc3ccccc3)c3ccccc3n2)cc1OC	17%
Cc1ccccc1-c1nnc(SCC(=O)N(C)c2ccccc2)o1	-64%
COc1ccc(NC(=O)Cn2nnc3sc4c(c3c2=O)CCCC4)cc1	-2%
O=C(NCc1ccc(F)cc1)c1cnc(N2CCOCC2)c2ccccc12	-6%
Cc1ccc(CN2C(=O)CN(C3CCC(C)CC3)C(=O)C2c2ccc(F)cc2)cc1 (stereo not drawn)	-3%
COc1ccccc1CNC(=O)CCn1c(=O)c2cccn2c2cccnc21	-5%
Cc1ccc(C)c(N2CCN(C(=O)c3cccn4c(=O)c5ccccc5nc34)CC2)c1	20%
Cc1cc(C)c(/C=C/c2onc(C)c2S(=O)(=O)N2CCC(C(=O)NCc3ccccc3Cl)CC2)c(C)c1	1%
CCc1ccc(C2c3c(oc4cc(C)c(C)cc4c3=O)C(=O)N2c2nc(C)c(C(=O)OC)s2)cc1 (stereo not drawn)	1%
Cc1cn2c(=O)cc(COC(=O)COc3ccc(C)c(C)c3)nc2s1	-11%
COC(=O)CN1C(=O)CSc2ccc(S(=O)(=O)Nc3cccc(C)c3)cc21	5%
Cc1ccc(NC2=CC(c3ccccc3F)N(c3ccc(C)cc3)C2=O)cc1 (stereo not drawn)	-23%
CCc1ccc(-n2nc(C)c3c(C)cc(=O)n(Cc4nc(-c5ccccc5)oc4C)c32)cc1	-6%
COc1ccc(NC(=O)CSc2nnc(-c3nnn(-c4ccc(F)cc4)c3C)o2)cc1	-19%
COc1cc2c(cc1OC)C(COc1ccc3c(C)cc(=O)oc3c1)N(C(=O)c1ccc(C)c(C)c1)CC2 (stereo not drawn)	-1%
CCc1ccc(NC(=O)CN2C(=O)C3(SCC(=O)N3c3ccccc3)c3ccccc32)cc1 (stereo not drawn)	-1%
CC(=O)c1ccc(N2CCN(c3ncnc4onc(-c5ccc(Cl)cc5)c34)CC2)cc1	14%
Cc1ccccc1Nc1cc(C(=O)NCc2cccs2)c2ccccc2n1	23%
COc1ccc(S(=O)(=O)NCC(c2ccco2)N2CCN(c3ccc(F)cc3)CC2)cc1 (stereo not drawn)	9%
Cc1c(NS(=O)(=O)c2ccc(Cl)cc2)c(=O)n(-c2ccccc2)n1C	-3%
Cc1ccc(-c2cc(C(=O)O)n(Cc3ccccc3)n2)cc1	-70%
COc1ccc(CCNC(=O)c2cc(-c3ccc(C)cc3)nc3n[nH]c(-c4ccccc4)c23)cc1OC	23%
Next records follow:
SMILES	miR-21 reporter
Cn1c(=O)c2c(nc(Oc3ccc(C#N)cc3)n2Cc2ccc(Cl)cc2Cl)n(C)c1=O	-1%
COc1ccc(CCNC(=O)c2cc(C)nc3c2c(C)nn3-c2ccc(C)cc2)cc1OC	7%
O=C(Nc1ccc(S(=O)(=O)N2CCCCCC2)cc1)c1[nH]ncc1[N+](=O)[O-]	-53%
COc1ccc(Nc2oc(/C=C/c3ccccc3OC)nc2C#N)cc1	-85%
COc1ccc2c(C)c(CCC(=O)NCCc3ccccc3)c(=O)oc2c1	1%
CCN(CC)c1ccc(NC(=O)CCS(=O)(=O)c2cc3c(cc2Cl)NC(=O)CO3)c(C)c1	16%
CCOc1ccc(-c2nc(Cn3c(=O)cc(-c4ccccc4)c4c(C)nn(C)c43)c(C)o2)cc1OC	-9%
Cc1ccccc1NC(=O)c1c(NC(=O)c2ccccc2F)sc2c1CCC(C)C2 (stereo not drawn)	-3%
